FGF22 binding = FGF22 (human) thermal shift binding; Q9HCT0; recombinant FGF22 thermal shift, SYPRO orange fluorescence; percent of sucrose octasulfate shift, DMSO zero; calls only at 9.99 µM; 340,000 tested, 1.5% active; AID 651658;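 active = melting point raised past a set limit in the mean and every replicate; three in four hits are not shown here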
B2AR ag = activates human beta-2 adrenergic receptor causing internalization; 340,000 tested, 0.43% active; response, % (concentration not given with the values); P07550; Am2.2-beta2AR cells, FAP receptor internalization, flow cytometry; reference of the scale not given here;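 active = response above a set limit, near 3 SD of response in nonfluorescent compounds, cut at about 42% in these data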;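 also: stock transfer was 100 nL into about 11 µL; a reference agonist was the positive control; negative values mostly stem from fluorescent compounds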
Target sequence (P07550 whole entry, looked up): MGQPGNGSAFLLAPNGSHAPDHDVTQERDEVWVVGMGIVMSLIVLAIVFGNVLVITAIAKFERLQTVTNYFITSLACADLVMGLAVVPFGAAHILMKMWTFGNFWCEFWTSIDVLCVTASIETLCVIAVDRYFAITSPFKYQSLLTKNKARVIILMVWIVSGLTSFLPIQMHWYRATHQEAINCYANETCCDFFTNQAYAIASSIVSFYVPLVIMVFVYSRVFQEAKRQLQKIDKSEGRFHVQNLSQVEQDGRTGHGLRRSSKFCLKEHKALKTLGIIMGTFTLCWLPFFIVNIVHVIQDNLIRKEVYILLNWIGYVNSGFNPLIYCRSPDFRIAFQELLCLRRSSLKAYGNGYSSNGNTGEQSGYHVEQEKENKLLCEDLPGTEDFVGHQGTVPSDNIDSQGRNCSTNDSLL
LANA-H2B inh = blocks KSHV LANA binding to histone H2A/H2B | cell-free LANA-H2A/H2B peptide, fluorescence polarization | inhibition, % (concentration not given with the values) | 320,000 tested, 0.6% active; in the data active = inhibition mostly above about 10%, no sharp cut-off; inactive = mostly below about 6.7%;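 also: stock transfer was 7.5 nL into about 10 µL; 0% = median of vehicle wells and 100% = median of positive control wells; one replicate is shown; the record names a cut of 25% in any replicate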
UCH37 DUB inh = human UCH37 deubiquitinating enzyme inhibition; 330,000 tested, 0.33% active; purified proteasome/UCH37, Ub-AMC cleavage fluorescence; AID 588478; inhibition, % (test concentration not listed);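 active = mean of two replicates above 20%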;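 also: 0% = compound-free wells with enzyme and 100% = wells lacking proteasome; stock transfer was 100 nL into about 20 µL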
Target sequence (Q9Y5K5 whole entry, looked up): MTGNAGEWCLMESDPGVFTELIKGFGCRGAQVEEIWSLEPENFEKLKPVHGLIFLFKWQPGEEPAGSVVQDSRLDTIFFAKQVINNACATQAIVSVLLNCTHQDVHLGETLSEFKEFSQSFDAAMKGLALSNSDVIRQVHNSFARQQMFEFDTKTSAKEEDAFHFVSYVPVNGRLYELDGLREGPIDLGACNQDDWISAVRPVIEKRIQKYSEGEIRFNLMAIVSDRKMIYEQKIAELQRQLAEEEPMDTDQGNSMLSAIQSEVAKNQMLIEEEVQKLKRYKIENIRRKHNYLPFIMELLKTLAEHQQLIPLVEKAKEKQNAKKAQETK
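System: Proteasome-associated human UCH37 deubiquitinase; Input: 0.15 nM proteasome in added enzyme buffer; Also added: Ub-AMC substrate from 1 µM stock; Incubation: 30 min compound-proteasome preincubation then 25 min substrate reaction, room temperature; Detection: fluorescence, ex 355 nm, em 460 nm; Read-out: % inhibition of Ub-AMC cleavage fluorescence; Benchmarks: no-proteasome and no-compound wells.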
ALR inh = human ALR oxidase inhibition via reduced H2O2; P55789; purified ALR, DTT oxidation, H2O2 HRP-luminol luminescence; inhibition, % (no concentration beside the values); 290,000 tested, 3.8% active;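 active = mean and each replicate at 75% or more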;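 also: stock transfer was 7.5 nL into about 7.5 µL; 0% = neutral wells and 100% = wells with inactivated enzyme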
Target sequence (P55789 whole entry, looked up): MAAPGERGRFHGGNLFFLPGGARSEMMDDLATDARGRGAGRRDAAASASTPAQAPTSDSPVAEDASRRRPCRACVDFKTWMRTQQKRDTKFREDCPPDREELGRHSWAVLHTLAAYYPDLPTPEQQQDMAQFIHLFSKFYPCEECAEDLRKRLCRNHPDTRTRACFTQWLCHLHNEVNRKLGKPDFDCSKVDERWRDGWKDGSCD
HNF4A DNA FP = change in binding of human HNF4 alpha to DNA. 360,000 tested, 0.3% active. HNF4a-FITC DNA binding, fluorescence polarization, 1 h. P41235. AID 1224865. activity change, % at 10 µM; in the data active = activity change above about 30%, passing the limit was not always enough;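 also: controls were the assay level and a saturating level of protein; the project sought stronger binding though the title names inhibitors; some compounds called inactive have numbers as strong as hits; positive values seem to mean higher polarization but the record does not say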
Ecoli growth = E. coli growth inhibition. Escherichia coli growth, OD600, 23 h; stronger effect = lower value. OD600 absorbance (test concentration not listed). 330,000 tested, 0.21% active. AID 1053175;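 active = OD600 absorbance below the run mean of sample wells minus 3.6 SD, in any replicate, cut at about 0.56 in these data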;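 also: stock transfer was 300 nL into about 60 µL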
* = called active by the depositor; i = inactive; . = not tested or not shown. An excerpt; the hit share may differ from the screen's.

SMILES	FGF22 binding	B2AR ag	LANA-H2B inh	UCH37 DUB inh	ALR inh	HNF4A DNA FP	Ecoli growth
Cc1c(C)c2ccc(O)c(CN3CCCC3)c2oc1=O	i	1.2	4.4	i	.	5.2	0.641
CN(C)CCNc1c(N)c(=O)oc2ccccc12	i	-1.6	0.6	0.1	2.0	-0.8	0.668
O=C(Nc1ccccc1F)c1cnccn1	.	-8.1	-1.6	1.3	-18.9	-2.3	0.651
O=C1N[C@H](Cc2ccccc2)CO1	i	-5.3	0.2	4.1	-3.7	-1.0	.
COc1ccc(S(=O)(=O)N2CCOCC2)cc1Br	i	5.2	7.2	3.1	-1.5	3.3	0.684
COc1cccc(N2CCN(c3ccc4nnc(CCC(=O)N5CCC(C)CC5)n4n3)CC2)c1	i	1.2	-2.4	9.2	98.9*	-1.4	0.701
O=C(NC(=S)Nc1cccc(Cl)c1N1CCCC1)c1ccc(-c2cccc([N+](=O)[O-])c2)o1	i	-0.7	3.1	9.9	-2.0	-1.0	0.664
COCCNC(=O)c1ccccc1NC(=O)CCSc1ccccc1	i	5.0	-8.2	-1.5	-5.2	-1.8	0.637
O=C(CCS(=O)(=O)Cc1ccccc1)N1CCN(c2ccc([N+](=O)[O-])cc2)CC1	i	5.4	-1.4	3.2	-3.2	3.2	0.696
COc1ccc(-n2c(SCC(=O)Nc3ccc(C(=O)O)cc3)nnc2-c2cccs2)cc1	.	0.4	3.6	2.1	-0.1	-0.7	0.656
C=CCNc1nc(-c2cccc(OC)c2O)nc2ccccc12	.	1.4	0.4	3.5	-0.4	-6.7	0.641
O=C(CN1C(=O)CSc2ccccc21)NC1CCCC1	i	-2.6	2.9	1.5	-4.3	-2.3	0.64
CCCc1nc(N2CCN(S(=O)(=O)c3ccc(Cl)cc3)CC2)c2c(C)c(C)sc2n1	i	3.2	-5.5	0.5	-6.0	5.2	0.72
CN(C)S(=O)(=O)c1ccc(C(=O)Nc2nnc(SCc3cccc(F)c3)s2)cc1	.	-3.1	-4.6	-5.2	0.8	-1.0	0.718
O=C(Nc1nncs1)c1cc(S(=O)(=O)N2CCCCC2)ccc1Cl	i	0.1	-2.1	1.1	2.8	3.0	0.66
COc1ccc(-c2ccc(CCC(=O)O)n2CC(C)C)cc1	.	5.5	2.7	-226.2	48.5	3.1	0.701
Cc1[nH]c(=O)c(C#N)c(C)c1Cc1ccc(Cl)cc1Cl	i	6.1	2.8	-17.4	-4.8	-3.5	0.658
COc1ccc(C(=O)NNC(=O)Cc2ccc([N+](=O)[O-])cc2)cc1	.	-5.8	2.0	0.2	10.1	0.6	0.679
Cc1ccc(C2=C/C(=C/c3cccs3)C(=O)O2)cc1	.	-1.3	0.1	5.0	0.3	88.7	0.709
O=C(N/N=C/c1ccncc1)C1C2CCCCCCC21 (centres undefined)	.	2.7	-2.8	.	0.7	0.6	.
COCC(=O)Nc1ccc([N+](=O)[O-])cc1C	.	-3.5	-3.7	2.4	-10.8	-0.9	0.719
CC(C)Cc1cc(CN2CCCC(CO)(Cc3cccc(Cl)c3)C2)[nH]n1 (centres undefined)	i	21.4	1.3	3.1	-7.5	1.8	0.648
Cc1ccc(S(=O)(=O)N2CCN(C(C)CC(=O)O)CC2)cc1 (centres undefined)	i	-5.1	-6.1	-0.8	-9.0	-1.8	0.707
CCNC(=O)CN(C1CCCCC1)S(=O)(=O)c1ccc(F)cc1	.	-1.3	15.8	0.8	-8.1	37.3*	0.693
CCN(CC)S(=O)(=O)c1cccc(NC(=O)COC(=O)CCC(=O)c2ccc(F)cc2)c1	.	7.9	1.0	3.3	29.8	1.3	0.698
CN(C)CCOCCP(=O)(c1ccccc1)c1ccccc1	.	0.7	-4.4	2.2	-9.5	1.2	0.709
COc1ccc(Cn2nnc(C(=O)Nc3ccc4c(c3)OCCO4)c2N)cc1Br	i	-4.2	-0.5	0.3	0.4	1.0	0.645
Cc1ccc(C)c(-c2nnc(NC(=O)CS(=O)(=O)c3ccccc3)o2)c1	i	9.7	-0.2	2.9	1.8	4.3	0.658
Cc1ccc(C(=O)N/C(=C\c2ccc(F)cc2)C(=O)NCc2ccncc2)cc1	.	1.1	.	-3.4	.	-2.6	0.644
O=C(/C=C/c1c(F)cccc1Cl)NCc1ccc2c(c1)OCO2	i	-6.7	0.3	0.1	1.3	-1.4	0.749
O=C(NC1CCCC1)C(Cc1ccccc1)n1cccc1 (centres undefined)	i	-14.2	-2.1	1.2	-2.8	0.0	0.735
C[C@H](NC(=O)c1ccc(Cl)c(S(=O)(=O)N2CCOCC2)c1)c1nc2ccccc2[nH]1	i	-3.0	-2.8	4.7	-3.1	-2.5	0.663
COc1ccc(-c2nsc(C(=O)N(c3ccc(F)cc3)C(C(=O)NC3CCCC3)c3ccc(OC)cc3)c2N)cc1 (centres undefined)	.	1.9	-0.8	-23.2	-8.2	-0.7	0.716
CC(=O)Nc1cc(C(=O)N2CCCC2)ccc1S(=O)(=O)c1ccc(Cl)cc1	.	0.6	-4.9	3.6	-0.8	2.0	0.744
Cc1cccc(-n2c(CNC(=O)c3cccc([N+](=O)[O-])c3C)n[nH]c2=S)c1	i	16.7	4.0	1.8	38.9	-3.8	0.711
CCOc1ccccc1N(CC(=O)Nc1cccc(OC)c1)S(=O)(=O)c1ccccc1	i	3.5	-2.7	0.5	-3.8	0.0	0.701
C[C@@]12C(=O)N(c3ccc(C(F)(F)F)cc3)C(=O)N1[C@@H]1c3ccccc3OC[C@@H]1[C@H]2c1ccccc1	.	-0.7	1.0	3.0	-2.0	2.4	.
C[C@H](NC(=O)c1nc[nH]c1C(=O)N[C@@H](C)C(=O)OC(C)(C)C)C(=O)OCc1ccccc1	i	-1.6	0.9	35.3*	.	1.2	.
CN(CCC#N)C(=O)COC(=O)c1nn(-c2ccccc2)c(=O)c2ccccc12	.	14.1	-5.4	0.6	-1.5	-0.4	0.682
CCCc1c(C)nc2c(Br)cccc2c1Cl	i	-3.3	6.5	3.3	-3.0	-1.4	0.696
O=C(Nc1cccc(F)c1)N1CCC(n2c(=O)[nH]c3ccccc32)CC1	i	10.6	-1.9	0.2	-2.6	1.2	0.639
O=c1c2ccccc2nc2n1CCN2	.	-2.2	2.6	-55.6	-1.9	-1.7	0.67
COc1cc(/C=C2/SC(=S)N(CC(=O)O)C2=O)ccc1OC(=O)c1cccs1	.	0.6	-3.2	14.4	.	12.9	0.717
Cc1ccc(NC(=O)CCNS(=O)(=O)c2cc(Br)cnc2N)cc1Cl	.	0.1	14.0	1.0	-4.1	0.2	0.683
CCc1cc(C(=O)c2ccc(OC)cc2)c(N)s1	i	-2.9	5.2	3.6	98.9*	-0.4	0.632
COc1ccc2c(CC(=O)Nc3cccc(S(=O)(=O)N4CCOCC4)c3)coc2c1	.	-2.9	-0.2	-1.9	1.4	3.7	0.683
Cc1nn(-c2ccccc2)c2[nH]c(=O)c(CNCCN3CCOCC3)cc12	.	9.8	1.2	-3.9	91.0*	3.5	0.773
COc1cccc2c3c(c(C)nc12)CC(C)O3 (centres undefined)	.	-6.0	-2.3	-277.7	-1.3	0.7	0.678
CCOCCOC(=O)C1=C(C)Nc2ccc(C)cc2S1	.	16.7	-3.9	3.0	-7.3	20.0	0.703
CCC(=O)c1ccc(OCC(=O)NCCc2ccccn2)cc1	i	3.2	1.1	-1.2	0.9	0.4	0.668

A portion from the list above:
SMILES	FGF22 binding	B2AR ag	LANA-H2B inh	UCH37 DUB inh	ALR inh	HNF4A DNA FP	Ecoli growth
COc1ccc2c(CC(=O)Nc3cccc(S(=O)(=O)N4CCOCC4)c3)coc2c1	.	-2.9	-0.2	-1.9	1.4	3.7	0.683
Cc1nn(-c2ccccc2)c2[nH]c(=O)c(CNCCN3CCOCC3)cc12	.	9.8	1.2	-3.9	91.0*	3.5	0.773

The listing continues.
SMILES	FGF22 binding	B2AR ag	LANA-H2B inh	UCH37 DUB inh	ALR inh	HNF4A DNA FP	Ecoli growth
Cc1ccccc1N1CCN(C2CCCN(C(=O)c3cn4c(C)cccc4n3)C2)CC1 (centres undefined)	i	3.3	1.9	-0.5	1.5	-2.2	0.678
Cc1ccc(OCC(=O)c2c(N)n(C)c(=O)n(C)c2=O)c([N+](=O)[O-])n1	i	-6.8	-5.1	7.7	.	-24.2	0.658
CCc1sc(C(=O)Nc2nc(-c3ccccn3)cs2)cc1C	.	9.4	8.1	5.9	2.6	6.7	0.682
COc1cc(C(=O)NC(=S)Nc2cccc(-c3cc4ccccc4oc3=O)c2)cc(OC)c1OC	.	-0.5	-2.5	-0.7	-11.5	0.4	0.723
CCOc1ccc(CN(C)C(=O)CNC(=O)c2ccc(Br)o2)cc1OC	i	-2.1	-3.2	4.1	-0.4	-0.9	0.694
CCN(C(=O)CSc1nc2cc(C(=O)OC)ccc2c(=O)n1Cc1ccco1)c1cccc(C)c1	.	1.8	-1.4	1.1	-4.9	1.5	0.712
CC(C)C[C@H](NC(=O)[C@@H]1Cc2c([nH]c3ccccc23)C2c3ccccc3C(=O)N21)C(=O)N1CCC[C@@H]1C(=O)O (some centres undefined)	i	-4.4	5.2	-2.4	.	-3.8	0.725
O=C(NCCCO)C(=O)Nc1cc2c3c(c1)CCN3C(=O)CC2	i	5.6	4.1	1.7	8.4	-1.7	0.725
Cc1ccc(OCC(=O)NCCCNC(=O)c2ccncc2)cc1	i	3.5	1.7	-0.2	-0.2	3.6	0.657
CCOCCCNC(=O)C(c1ccc(Cl)cc1)N1CCC2(CC1)OCCO2 (centres undefined)	.	7.8	-1.0	-0.4	-0.7	-4.0	0.694
CN(CC(=O)Nc1ccc(F)c(F)c1F)C(=O)c1ccc2c(c1)S(=O)(=O)N=C1CCCCCN12	i	6.2	-8.4	0.0	-6.1	0.1	0.671
O=C1c2c([N+](=O)[O-])cc([N+](=O)[O-])cc2S(=O)N1Cc1ccccc1 (centres undefined)	i	2.8	6.6	1.5	13.8	-0.8	0.651
O=C(CCN1C(=O)c2ccccc2C1=O)OCN1C(=O)c2ccccc2C1=O	.	3.2	1.2	3.5	-8.3	-3.5	0.758
O=C1NC(c2ccc(Br)cc2)Nc2sc3c(c21)CCC3 (centres undefined)	.	7.7	-7.8	.	16.0	3.1	.
CN(C)C/C=C/C(=O)Nc1cccc(-c2c[nH]c3ncnc(Oc4ccc(NC(=O)CC(=O)Nc5ccc(F)cc5)cc4F)c23)c1	.	-14.1	-3.8	3.7	-5.5	4.4	.
Cc1ccc(NC(=O)C2C3CCCC2C3c2ccccc2)cc1 (centres undefined)	.	-9.8	-2.8	-2.1	-7.0	0.0	0.724
O=C(O)C1CCC(c2ccc(-c3ccccc3)cc2)CC1 (centres undefined)	i	-9.9	-1.0	1.8	-6.4	0.2	0.68
Cc1ccc(S(=O)(=O)N(CC(=O)N2CCC(C(N)=O)CC2)c2cccc(C(F)(F)F)c2)cc1	.	-3.9	-3.6	-1.2	1.2	0.1	0.717
CCN(CC)C(=O)CSc1nc2ccc(NC(=O)CSc3nnc(COc4ccccc4C)n3C)cc2s1	.	10.2	-1.7	4.4	-33.9	-2.8	0.703
CC1CCCC(C)N1C(=O)CSc1ncccn1 (centres undefined)	i	-0.6	2.5	3.8	-3.9	1.7	0.677
Cc1ccnc(N2C3CCC2CC(O)(c2ccccc2)C3)n1 (centres undefined)	i	5.1	4.4	-13.7	-9.3	0.5	0.718
CCN(C[C@H]1N[C@@](CC)(C(=O)OC)[C@H]2C(=O)N(Cc3ccccc3)C(=O)[C@@H]12)C(=O)COc1ccccc1	i	-3.6	.	6.0	.	-0.7	0.71
O=C(CSc1nnc(C2CC2)n1C1CC1)c1ccc(Br)s1	i	-9.6	0.8	-0.6	51.1	2.8	0.672
Cc1ccc(N2CCN(CC(O)COc3ccc([N+](=O)[O-])cc3)CC2)cc1 (centres undefined)	i	2.5	-1.6	1.4	12.3	-2.4	0.63
COc1ccc(NC(=O)CC(c2ccc(F)cc2)c2ccc(OC(C)C)cc2)cc1 (centres undefined)	i	3.1	-0.6	2.9	0.5	-0.6	0.754

High-throughput results (PubChem BioAssay)
